Rango-impB inh: prevents formation of the Rango-importin beta complex. Q14974. Rango CFP/YFP FRET sensor + importin beta, 45 min. Potency, µM (series often up to 92.2 µM), for inactives: at the highest dose inhibition of complex formation. actives 0.031% (n = 340,000). AID 540263; active = rising FRET ratio curve, often small or poorly fitted; inconclusive = mostly compound fluorescence or quenching in the first reads; inactive = flat curves in all reads;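 also: potency is read from the fitted curve at half-maximal effect; 0% = DMSO wells and 100% = buffer wells lacking importin beta; nearly all actives have a fitted effect of over 15% in size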
Target sequence (Q14974 whole entry, looked up): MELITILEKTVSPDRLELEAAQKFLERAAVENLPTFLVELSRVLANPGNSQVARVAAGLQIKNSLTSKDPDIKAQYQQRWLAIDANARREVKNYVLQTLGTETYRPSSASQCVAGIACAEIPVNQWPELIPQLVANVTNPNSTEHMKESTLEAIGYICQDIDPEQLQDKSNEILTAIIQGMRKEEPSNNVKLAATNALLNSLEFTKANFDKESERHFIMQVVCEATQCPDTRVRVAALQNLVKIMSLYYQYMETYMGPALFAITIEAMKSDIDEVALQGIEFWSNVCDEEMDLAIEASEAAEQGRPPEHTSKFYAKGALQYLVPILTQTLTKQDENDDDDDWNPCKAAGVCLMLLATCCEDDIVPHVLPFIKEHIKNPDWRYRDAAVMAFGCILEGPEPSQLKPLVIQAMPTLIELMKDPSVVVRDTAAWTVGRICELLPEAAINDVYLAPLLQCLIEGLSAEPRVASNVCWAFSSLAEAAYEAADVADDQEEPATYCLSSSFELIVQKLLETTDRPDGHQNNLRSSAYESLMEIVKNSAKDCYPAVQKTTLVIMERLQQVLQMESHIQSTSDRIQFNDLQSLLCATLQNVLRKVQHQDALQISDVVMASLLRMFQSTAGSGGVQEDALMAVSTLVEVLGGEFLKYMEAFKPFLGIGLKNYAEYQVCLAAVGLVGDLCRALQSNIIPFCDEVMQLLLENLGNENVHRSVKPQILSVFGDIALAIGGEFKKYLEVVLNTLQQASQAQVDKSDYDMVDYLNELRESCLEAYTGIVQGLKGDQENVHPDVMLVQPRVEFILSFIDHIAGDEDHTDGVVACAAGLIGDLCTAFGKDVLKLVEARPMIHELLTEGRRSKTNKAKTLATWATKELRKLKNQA
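Inhibition scored from the CFP 486 nm/YFP 530 nm FRET ratio 45 min after adding 0.125 microM importin beta to 50 nM Rango biosensor preincubated 5 min with compound (room temperature, PBS with DTT, Tween-20, BSA). No-importin wells as positive control.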
miR-21 FLuc: raises the signal of a miR-21 reporter. Potency, µM (highest dose often 38.3 µM), without a hit: top-dose reporter change, positive = more light. AID 2288. 340,000 tested, under 10 active. HeLa miR-21 FLuc reporter, luciferase, 48 h; active = well fitted rising curve with a large enough effect; inconclusive = small, poorly fitted or top-dose-only effect; inactive = no such curve, though single readings can be large or run the other way;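 also: % of control where 0% means no effect; miR-21 action dims this reporter so a rising signal means less miR-21 action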
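Compounds were titrated across several concentrations (up to approximately 40 uM) and incubated 48 hours with HeLa miR-21-FLuc reporter cells (miR-21 target sequence downstream of FLuc, endogenous miR-21). Readout was firefly luciferase luminescence after lytic detection reagent.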
GLA inh pH 4.5: alpha-galactosidase A (human) inhibition, pH 4.5. purified enzyme, 4-MU-alpha-Gal fluorescence, pH 4.5. activity change, negative = inhibition, % at 105 µM. P06280. 230,000 tested, under 10 active. AID 1467; inconclusive = small, poorly fitted or top-dose-only inhibition, or a rising curve; inactive = flat fitted curve, though single readings scatter; no compound was filed as active;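 also: 0% = full activity with enzyme and -100% = basal without enzyme; dose as in the result columns while the protocol names 77 µM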
Rango release inh: prevents RanGTP from dissociating the Rango-importin beta complex; O95149+P62826; Biochemical FRET Rango-importin beta, RanGTP-induced dissociation; Potency, µM (highest dose often 46.1 µM), for inactives: top-dose activity change, negative = inhibition; actives 0.071% (n = 340,000); AID 540253; active means falling FRET ratio curve, often poorly fitted, with flat reads before Ran was added; inconclusive means other falling curves, or compound fluorescence or quenching; inactive means flat or rising ratio curve;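 also: potency is read from the fitted curve at half-maximal effect; % of control where 0% means no effect; nearly all actives have a fitted effect of over 45% in size; -100% = wells without RanGTP and RCC1; the record marks most hits as doubtful in a second field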
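Recombinant Rango FRET biosensor (EYFP–snurportin 1 IBB–cerulean CFP10) at 0.1 uM premixed with 0.25 uM importin beta in PBS, 1 mM DTT, 0.02% Tween-20, 0.1% BSA. Compound added 5 min; RanGTP-RCC1 (0.6 uM Ran, 2 mM GTP, 0.2 uM RCC1) then triggers release, read at 45 min.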
Active calls of the source: *; ? = inconclusive; . = no result given; & = joins results of further samples; [ ] = dose if it differs, or a comment.

Compound	Rango release inh	GLA inh pH 4.5	miR-21 FLuc	Rango-impB inh
Cc1ccc(CC(=O)N/N=C/c2ccc3c(c2)OCO3)cc1	-1%	-6	-24%	8.6%
Cc1nn(C)cc1CN(C)S(=O)(=O)c1cccc([N+](=O)[O-])c1	-6%	4	-4%	-4.4%
CC(=O)CSc1nc2c(c(=O)[nH]c(=O)n2C)n1Cc1ccccc1Cl	-3%	.	-5%	0.8%
O=C(c1ncc[nH]1)c1ccco1	24%	4	-4%	0.1%
O=S(=O)(c1cccc2cccnc12)N1CCN(Cc2ccccc2)CC1	1%	-7	-14%	-1.3%
COCc1ccc(C(=O)Nc2cccc(S(=O)(=O)N(C)c3ccccc3)c2)cc1	-7%	.	.	0.0%
O=S(=O)(Nc1nc(-c2ccccc2)cs1)c1cccc(C(F)(F)F)c1	9%	.	-1%	-0.2%
CCCOP(=O)(c1ccc(N(C)C)cc1)C(Nc1ccccc1)c1ccc(N(C)C)cc1 (stereo not given)	4%	-19	0%	?
COc1ccc(NC(C)=O)cc1S(=O)(=O)N(C)Cc1c(C)nn(-c2ccccc2)c1C	21%	.	.	0.3%
COCCNC(=O)c1ccc2snnc2c1	15%	4	0%	-0.6%

Continued.
Compound	Rango release inh	GLA inh pH 4.5	miR-21 FLuc	Rango-impB inh
Cc1oc2ccccc2c1CNC(=O)N(C)C	-7%	7	8%	14%
O=C(O)C(Cc1ccc(O)cc1)N1C(=O)C2CCCCC2C1=O (stereo not given)	-15%	5	0%	3.4%
Cn1c2ccccc2c(=O)c2ccc(C#CC3(O)CCCCC3)cc21	?	.	-8%	?
CC1CCCCC1NC(=O)C1CCCN1S(=O)(=O)c1cccc2nsnc12 (stereo not given)	-16%	-6	-1%	-4.0%
Cc1c(C(=O)N2CCC2)oc2ccc(Br)cc12	-2%	.	.	1.4%
O=C(CCCc1cccs1)Nc1nc2c(s1)CCCC2	-4%	-8	-45%	-1.0%
CCOc1ccc(CCNC(=O)C2CCCN(S(=O)(=O)c3c(C)n[nH]c3C)C2)cc1OCC (stereo not given)	-9%	-4	-5%	3.1%
O=C(CSc1nnc(CNC(=O)c2ccccc2)o1)NCC1CCCO1 (stereo not given)	-2%	.	-2%	-0.6%
COC(=O)c1ccccc1NC(=O)CCCn1nc(C)c2c(C)n(-c3ccccc3)nc2c1=O	33%	.	1%&-1%	0.0%
CCN(c1cccc(C)c1)S(=O)(=O)c1cc(CN2C(=O)c3cccnc3C2=O)ccc1OC	-10%	.	-1%	0.6%

By substructure, the compounds so far containing an aryl thioether with sulfur outside any ring (two)
Compound	Rango release inh	GLA inh pH 4.5	miR-21 FLuc	Rango-impB inh
CC(=O)CSc1nc2c(c(=O)[nH]c(=O)n2C)n1Cc1ccccc1Cl	-3%	.	-5%	0.8%
O=C(CSc1nnc(CNC(=O)c2ccccc2)o1)NCC1CCCO1 (stereo not given)	-2%	.	-2%	-0.6%

Continued:
Compound	Rango release inh	GLA inh pH 4.5	miR-21 FLuc	Rango-impB inh
O=C(c1c(F)c(F)c(F)c(F)c1F)N1CCN(Cc2ccc3c(c2)OCO3)CC1	-12%	.	.	-4.2%
N/C(=N\c1nc2ccccc2o1)NC(=O)c1ccc(F)cc1	-8%	-6	-36%	0.8%
CC(C)(C)c1ccc(C(=O)N/N=C/c2cccc(Cl)c2)cc1	2%	-17	-9%	0.0%
Cc1nc(SCC(=O)Nc2ccccc2C(F)(F)F)c(C#N)c(C)c1CC(=O)c1ccc(Br)cc1	.	9	-5%	.
Cc1cccc(NC(=O)c2cccc(N3C(=O)C4C5C=CC(C6CC56)C4C3=O)c2)c1 (stereo not given)	0%	.	21%	-2.4%
CCCCC[C@H]1CN(C2CCCCC2)C(=O)[C@@H]1CC(=O)NCc1ccccc1	8%	.	11%	0.8%
NC(=O)c1cc(-c2ccccc2)nc(N2CCCCCC2)n1	?	0	2%	?
Cc1ccccc1-c1nc(CS(=O)CC(=O)NC2CCCCC2)c(C)o1 (stereo not given)	-12%	.	-10%	0.8%
COc1ccc(N2CCN(Cc3nc4scc(-c5cccs5)c4c(=O)[nH]3)CC2)cc1	1%	3	3%	-0.2%
O=C(O)C/C(=C\c1cccc(NC(=O)c2ccccc2Cl)c1)c1nc2ccccc2s1	1%	-2	-25%	-0.2%

The listing continues.
Compound	Rango release inh	GLA inh pH 4.5	miR-21 FLuc	Rango-impB inh
O=C(O)CCSc1nc2ccccc2n1Cc1ccccc1	1%	.	1%	4.9%
Cc1ccc(-c2ccc(SCC(=O)NC3CCCCC3)nn2)cc1	-7%	.	-20%	1.2%
CCOC(=O)C1(C(F)(F)F)N=C(c2ccccc2F)OC(N(C)C)=N1 (stereo not given)	-13%	0	7%	-1.0%
CCOc1ccc(NC(=O)N2CCN(S(C)(=O)=O)CC2)cc1	24%	1	1%	-0.1%
CCCc1sc(N)nc1-c1ccc(Cl)cc1	3%	-12	-2%	-1.4%
C/C(=N\NC(=O)CSc1nc2ccccc2s1)c1ccco1	-8%	4	-6%	-2.7%
CN(C)c1ncnc2c1ncn2-c1ccccc1	4%	.	.	-1.0%
Fc1cccc(Cl)c1CNC(c1ccccc1)c1ccccc1	1%	-9	10%	4.7%
Cc1cc2nc3s/c(=C/c4ccc(-c5ccccc5C(=O)O)o4)c(=O)n3c2cc1C	?	.	-5%	?
C=CCN1[C@@H](Cc2ccccc2)COCCS1(=O)=O	0%	.	.	0.0%

Other compounds:
Compound	Rango release inh	GLA inh pH 4.5	miR-21 FLuc	Rango-impB inh
CCCCCn1nc(C)c(/C=N\NC(=O)c2cc(C)oc2C)c1C	13%	-9	-35%	-0.8%
CCCNc1nc2c(c(=O)[nH]c(=O)n2C)n1CCOc1ccccc1	11%	.	-3%	?
COc1ccc(C2C(C(=O)Nc3ccccc3)=C(C)Nc3nc(CCCO)nn32)cc1 (stereo not given)	-3%	8	-2%	-0.5%
Cc1n[nH]c(C)c1N1C(=O)c2cccc3c(Br)ccc(c23)C1=O	-8%	-1	-1%	-2.6%
CCOc1ccc2[nH]c3nc(SCC(=O)NC4CCCC4)nnc3c2c1	1%	.	-3%	-3.4%
CCOC(=O)c1c(O)cc(OC)cc1CCc1ccccc1	-6%	.	.	-2.5%
COC(=O)C1=C(C)NC(=O)/C1=C\c1ccc2c(c1)OCO2	-1%	5	-13%	-0.3%
O=C(Nc1ccc(Oc2ccc(NC(=O)Nc3ccc([N+](=O)[O-])cc3)cc2)cc1)Nc1ccc([N+](=O)[O-])cc1	-3%	-11	4%	-3.4%
CC(=O)N(c1nnc(-c2ccc(C)cc2)s1)C1CCCC1	5%	.	-56%	0.7%
COC(=O)c1ccc2c(c1)SC1=C(CCCC1=O)N2	-3%	-4	-29%	5.4%

The list continues.
Compound	Rango release inh	GLA inh pH 4.5	miR-21 FLuc	Rango-impB inh
CNC[C@@H]1Oc2ccc(NS(=O)(=O)c3ccc(Cl)cc3)cc2C(=O)N([C@H](C)CO)C[C@@H]1C	-19%	.	.	-1.3%
CCOC(=O)[C@H]1[C@H]2COc3ccc(Br)cc3[C@@H]2N2C(=O)c3ccc(C)cc3NC(=O)[C@@]12C	4%	.	.	2.0%
O=C(NCC(=O)N(c1ccccc1)C(C(=O)NC1CCCCC1)c1ccncc1)c1ccco1 (stereo not given)	10%	-3	-4%	0.5%
O=C(N/N=C/c1cccnc1)c1cccc(S(=O)(=O)Nc2cccc(Cl)c2)c1	1%	2	-14%	1.6%
CCCN(C(=O)C1=COCCO1)c1c(N)n(Cc2ccccc2)c(=O)[nH]c1=O	-11%	.	.	-3.0%
CNC(=O)C1(CC(C)C)C=CCN1C(C)=O (stereo not given)	1%	3&-7	-13%	-3.4%
COc1cccc(-n2c(Cn3nc(C(F)(F)F)cc3C)n[nH]c2=S)c1	1%	5	1%	-2.5%
COc1ccc(NS(=O)(=O)c2ccc(SC)cc2)cc1	-8%	-1	8%	2.0%
CC(C)C(C)NC(=O)COC(=O)/C=C/c1ccc(S(=O)(=O)N2CCc3ccccc32)cc1 (stereo not given)	-8%	11	0%	-4.1%
CC(C)(C)c1ccc(OCC(=O)NNC(=O)c2cccnc2)cc1	1%	3	-6%	4.3%

The list goes on.
Compound	Rango release inh	GLA inh pH 4.5	miR-21 FLuc	Rango-impB inh
CC1CCN(C(=O)c2[nH]cnc2C(=O)Nc2nccs2)CC1	-4%	.	.	-3.8%
CCN(CCCNC(=O)CCn1c(=O)[nH]c2ccccc2c1=O)c1cccc(C)c1	-14%	-1	-3%	0.7%
CCN(C(=O)COC(=O)/C=C/c1ccc(O)c(OC)c1)C1CCS(=O)(=O)C1 (stereo not given)	22%	-2	-2%	?
COc1ccc(-c2cc(-c3ccccc3)nc(=O)[nH]2)cc1	-14%	18	-6%	?
O=C(CCCOc1ccccc1)Nc1ccc2c(c1)OCCO2	1%	2	-18%	?
COc1ccc2c(c1)c1nnc(SCC(=O)N3CCCCC3C)nc1n2C (stereo not given)	-11%	-1	1%	1.4%
COc1ccc(-n2nc3cc(C)c(NC(=O)CC(C)C)cc3n2)cc1	.	6	-9%	.
O=C(NCCN1CCN(c2ccccc2)CC1)c1cccc(Br)c1	1%	-6	9%	-2.2%
O=C(COc1ccc(-n2cnnn2)cc1)Nc1cccc(Cl)c1Cl	6%	.	-8%	0.3%
O=C(Nc1ccncc1)c1cc(S(=O)(=O)N2CCCC2)ccc1Cl	-11%	.	.	-0.4%

The listing continues:
Compound	Rango release inh	GLA inh pH 4.5	miR-21 FLuc	Rango-impB inh
CCc1ccc(OCC(=O)N2CC(C(=O)OC)Oc3ccccc32)cc1 (stereo not given)	-17%	.	-2%	-4.4%
COc1ccc(CCn2c(=N)c(C(=O)NCCN3CCOCC3)cc3c(=O)n4cccc(C)c4nc32)cc1OC	-20%	.	4%	?
O=C(NCCN1CCCC1)c1ccc(Cn2c(=S)[nH]c3cc4c(cc3c2=O)OCO4)cc1	-8%	3	-16%	0.1%
CCOCC(=O)Nc1nc2ccc(OC)cc2s1	2%	-6	-35%	-0.4%
Cc1nc2ccccc2c(=O)n1NC(=O)/C=C/c1ccc(Br)cc1	-4%	0	-1%	1.8%
Cc1ccc(NC2SC(=O)N(CC(=O)O)C2=O)cc1 (stereo not given)	0%	1	1%	?
O=C(NCC1CCCCC1)C1CCN(C(=O)NC2CCCCC2)CC1	-14%	-2	-2%	-0.3%
O=C(NNC(=O)C1CCN(Cc2ccc(F)cc2Cl)CC1)Nc1ccc([N+](=O)[O-])cc1	-5%	-1	-2%	0.6%
CSc1ncnc2c1ccn2CC(=O)Nc1ccc(C)c(C)c1	13%	.	.	-0.2%
COCCCNC(=O)c1c[nH]c2ccc(S(=O)(=O)N3CCC4(CC3)OCCO4)cc2c1=O	6%	5	0%	-3.7%

Additional entries follow.
Compound	Rango release inh	GLA inh pH 4.5	miR-21 FLuc	Rango-impB inh
O=S1(=O)CC(O)C(NCc2cccnc2)C1 (stereo not given)	0%	0	0%	-1.3%
C=CCN1C(=O)c2ccc(C(=O)NCC(=O)Nc3c(C)cc(C)cc3C)cc2C1=O	-2%	.	.	-2.8%
Cc1ccc(S(=O)(=O)N(CCC#N)CCN2CCCC2)cc1	-2%	-2	-3%	0.0%
CCn1ncc(C2C(C(=O)Nc3ccc(C)cn3)=C(C)NC3=C2C(=O)CCC3)c1C (stereo not given)	?	11	-3%	-0.1%
CC1CCC(NC(=O)C2CCN(S(=O)(=O)c3ccc4nc5c(c(C(=O)O)c4c3)CC(C)CC5)CC2)CC1 (stereo not given)	1%	-9[21.1 µM]	-4%	-0.8%
O=C(c1ccc(N2CCCC2=O)cc1)N1CCN(c2ccccc2Cl)CC1	-12%	.	.	-0.1%
Cn1cnnc1SCc1ccc(C(=O)n2ncc(C#N)c2N)cc1	-7%	-1	-2%	1.4%
COc1ccc(OC)c(S(=O)(=O)NC(C)(C)C)c1	-2%	5	0%	0.3%
CC1Cc2ccccc2N1C(=O)CSc1nnc(C2CC2)n1C (stereo not given)	-4%	-1	-4%	-0.4%
O=C(Nc1ccccc1Cc1ccccc1)c1ccncc1	2%	.	1%	?
Cc1ccc(S(=O)(=O)N2CCN(c3ccc([N+](=O)[O-])c(Sc4nncn4C)c3)CC2)cc1	-2%	-5	-13%	-1.3%
N=c1n(CCN2CCCCC2)c2ccccc2n1CC(O)c1ccco1 (stereo not given)	-6%	4	2%	-0.9%

These rows are one share of the data; rates above refer to the full screens.
